VACV Venus inh: vaccinia inhibition (Venus reporter); Vaccinia virus Venus reporter expression, fluorescence; Potency, µM (highest dose often 36.5 µM), for the others: at the highest dose activity change, negative = inhibition, actives largely listed as inhibitors; 330,000 tested, 0.46% active; active means well fitted inhibition curve with a large enough effect; inconclusive means small, poorly fitted or top-dose-only effect; inactive means no such curve, though single readings can be large or run the other way; tested in A549 cells; note: nearly all actives have a fitted effect of over 30% in size; inactives centre near -10
VACV mCherry inh: vaccinia inhibition (mCherry reporter) | 310,000 tested, 0.63% active | Vaccinia virus mCherry reporter infection, fluorescence; about a quarter of the inactives have no number | Potency, µM (titrated, usually from 36.5 µM), for the others: at the highest dose activity change, negative = inhibition, most hits filed as inhibitors; active = well fitted inhibition curve with a large enough effect; inconclusive = small, poorly fitted or top-dose-only effect; inactive = no such curve, though single readings can be large or run the other way; tested in A549 cells; note: nearly all actives have a fitted effect of over 35% in size; inactives centre near -10
Numbers without * were called inactive; i = inactive; ? = inconclusive. % is set by controls: 0 for no effect and ±100 for the full control effect; potency is the fitted concentration of half-maximal effect.

compound: COC(=O)c1ccc(-c2nc(O)c3cnccn23)cc1
- VACV Venus inh: 9.8%
- VACV mCherry inh: 2.4%

compound: O=[N+]([O-])c1ccc(O)c(/C=N/Nc2ccc(Cl)nn2)c1
- VACV Venus inh: ?
- VACV mCherry inh: 1.12µM*

compound: CCCS(=O)(=O)C/C(N)=N/OC(=O)c1ccc(Cl)cc1
- VACV Venus inh: -3.4%
- VACV mCherry inh: -16.9%

compound: CC(=O)NC(CCS(C)(=O)=O)C(=O)Nc1ccc(Cl)c(Cl)c1 (stereo not drawn)
- VACV Venus inh: 1.7%
- VACV mCherry inh: 2.2%

compound: CC(C)Oc1ccc(C(=O)Nc2ccc(N3CCCCC3)cc2)cc1
- VACV Venus inh: -28.7%
- VACV mCherry inh: -17.6%

compound: O=C(Oc1ccc(F)cc1)c1nc(SCc2ccc(F)cc2)ncc1Cl
- VACV Venus inh: -17.2%
- VACV mCherry inh: -6.5%

compound: Cc1cc(C)c2c(NC(=S)Nc3ccccc3)n[nH]c2n1
- VACV Venus inh: -13.2%
- VACV mCherry inh: -3.1%

compound: NC(=O)CC(NC(=O)c1ccccc1)c1ccc(NCC2CC2)c([N+](=O)[O-])c1 (stereo not drawn)
- VACV Venus inh: -5.4%
- VACV mCherry inh: i

compound: COc1c(C=O)c2c(c(OC)c1OC)-c1ccc(OC)c(=O)cc1C(NC(C)=O)CC2 (stereo not drawn)
- VACV Venus inh: ?
- VACV mCherry inh: ?

compound: CCOC(=O)N1CCN(C(=O)Cn2ncc3c4ccccc4n(Cc4ccc(F)cc4)c3c2=O)CC1
- VACV Venus inh: ?
- VACV mCherry inh: ?

compound: CC(NS(=O)(=O)c1cc2c3c(c1)CCN3C(=O)CC2)c1ccccc1 (stereo not drawn)
- VACV Venus inh: -4.6%
- VACV mCherry inh: -0.1%

compound: CC1(C(=O)NS(=O)(=O)c2ccc(Br)cc2)CCN1C(=O)C1CCCCC1 (stereo not drawn)
- VACV Venus inh: 5.1%
- VACV mCherry inh: 2.5%

compound: CC(NC(=O)c1noc2c1CCCC2)c1ccccc1 (stereo not drawn)
- VACV Venus inh: -7.7%
- VACV mCherry inh: -21.3%

compound: COc1ccc(C2CC2C(C)=O)cc1 (stereo not drawn)
- VACV Venus inh: -5.5%
- VACV mCherry inh: -17.5%

compound: CC(C)C(=O)Nc1cccc(NC(=O)c2cc3ccccc3o2)c1
- VACV Venus inh: -11.4%
- VACV mCherry inh: -26.6%

compound: CC(O)CNc1nc2ccccc2n1CC(=O)NCC(F)(F)F (stereo not drawn)
- VACV Venus inh: -6.4%
- VACV mCherry inh: 0.6%

Compounds listed so far with an aryl methoxy group (2):
compound: COc1c(C=O)c2c(c(OC)c1OC)-c1ccc(OC)c(=O)cc1C(NC(C)=O)CC2 (stereo not drawn)
- VACV Venus inh: ?
- VACV mCherry inh: ?

compound: COc1ccc(C2CC2C(C)=O)cc1 (stereo not drawn)
- VACV Venus inh: -5.5%
- VACV mCherry inh: -17.5%

4 compounds picked at random from those above:
compound: CC(NC(=O)c1noc2c1CCCC2)c1ccccc1 (stereo not drawn)
- VACV Venus inh: -7.7%
- VACV mCherry inh: -21.3%

compound: O=[N+]([O-])c1ccc(O)c(/C=N/Nc2ccc(Cl)nn2)c1
- VACV Venus inh: ?
- VACV mCherry inh: 1.12µM*

compound: CCOC(=O)N1CCN(C(=O)Cn2ncc3c4ccccc4n(Cc4ccc(F)cc4)c3c2=O)CC1
- VACV Venus inh: ?
- VACV mCherry inh: ?

compound: NC(=O)CC(NC(=O)c1ccccc1)c1ccc(NCC2CC2)c([N+](=O)[O-])c1 (stereo not drawn)
- VACV Venus inh: -5.4%
- VACV mCherry inh: i

High-throughput results as filed in PubChem.
